PKD1 kinase inh = PKD1 (human) kinase inhibition. Q15139. PKD1 kinase fluorescence polarization assay. inhibition, %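 (about 10 µM by stock and volumes)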. hit rate 0.056% among 200,000. AID 797;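 active means inhibition of 50% or more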;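 further: controls were vehicle for no effect and a reference inhibitor for full effect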
HSV augment = HSV replication enhancement. HSV replication augmentation in cells, fold increase. maximum fold increase. hit rate 0.005% among 220,000;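 active means peak rise of 1.5-fold or more in the series; tested in PC3 cells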;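 further: first round at 10 µM; read as green reporter fluorescence; hits show the peak of a series up to 25 µM; 1 = signal of infected wells without compound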
GALR2 agonist = activates the human galanin receptor 2 | O43603 | GALR2-expressing cells, agonist activation read-out | activation, %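 (tested at 5 µM)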 | hit rate 0.48% among 140,000;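 active means above mean plus 3 SD of all compounds, about 5% in these data, not always enough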;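 further: 0% = vehicle buffer wells and 100% = reference agonist at full effect; tested in CHO reporter cells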
Target sequence (O43603 whole entry, looked up): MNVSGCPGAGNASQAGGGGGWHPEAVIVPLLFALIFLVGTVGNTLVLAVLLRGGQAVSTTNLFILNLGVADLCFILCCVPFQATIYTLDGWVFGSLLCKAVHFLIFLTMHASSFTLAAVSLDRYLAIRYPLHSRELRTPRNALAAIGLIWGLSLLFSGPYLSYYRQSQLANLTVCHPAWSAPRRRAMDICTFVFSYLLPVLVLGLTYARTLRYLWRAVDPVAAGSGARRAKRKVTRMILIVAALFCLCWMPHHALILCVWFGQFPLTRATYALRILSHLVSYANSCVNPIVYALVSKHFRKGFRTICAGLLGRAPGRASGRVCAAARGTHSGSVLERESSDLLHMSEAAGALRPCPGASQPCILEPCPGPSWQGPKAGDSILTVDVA
RGS16-Gao HTS = modulates binding between human RGS16 and Galphao | O15492+P09471 | bead-based flow cytometry RGS16-Galphao binding, fluorescence; actives lie on both sides | binding response (% of control), % at 10 µM | hit rate 0.38% among 220,000 | AID 1441;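 active means below 25% or above 175%, edge rows of some plates excepted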;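 further: Galphao activated by GDP with aluminum fluoride before binding; 100% = wells without compound and 0% = beads without RGS; some results beyond the cut were filed as inactive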
Target sequence (O15492 whole entry, looked up): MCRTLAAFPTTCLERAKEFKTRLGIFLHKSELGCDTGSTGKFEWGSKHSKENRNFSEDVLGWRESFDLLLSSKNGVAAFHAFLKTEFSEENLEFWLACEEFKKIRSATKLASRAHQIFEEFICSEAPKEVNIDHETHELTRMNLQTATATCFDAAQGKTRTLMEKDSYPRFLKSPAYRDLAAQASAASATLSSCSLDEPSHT
Target sequence (P09471 whole entry, looked up): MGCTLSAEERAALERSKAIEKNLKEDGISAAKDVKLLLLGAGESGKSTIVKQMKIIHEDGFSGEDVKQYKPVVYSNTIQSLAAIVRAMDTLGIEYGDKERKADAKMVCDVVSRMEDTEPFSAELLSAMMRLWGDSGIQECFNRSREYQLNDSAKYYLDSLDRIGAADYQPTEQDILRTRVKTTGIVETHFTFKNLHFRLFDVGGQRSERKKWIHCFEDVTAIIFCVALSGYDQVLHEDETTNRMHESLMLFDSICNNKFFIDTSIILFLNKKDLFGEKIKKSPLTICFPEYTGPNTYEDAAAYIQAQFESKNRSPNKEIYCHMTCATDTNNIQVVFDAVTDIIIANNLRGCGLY
INS promoter inh = TRM-6 insulin promoter activity inhibition; TRM-6 cells (human fetal islet line), insulin promoter-eGFP reporter, imaging; reporter expression induced with tamoxifen; AID 1273; inhibition, % at 2 µM; hit rate 0.9% among 130,000;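 active means inhibition above the mean plus 3 SD, with well images judged a real hit on visual review, cut at about 60% in these data, passing the limit was not always enough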
INS promoter inh cell count = further read-out of INS promoter inh, marked with its call; normalized cell count, %; measured here: cell count, toxicity; reference of the scale not given here;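 cells exposed to compound for 48 h; stained nuclei by imaging scaled within each plate; lower means fewer cells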
HSV augment primary fold = recorded beside HSV augment, whose call it bears; fold increase; compound at 10 µM; measured here: primary screen fold increase 10 uM; tested in PC3 cells;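 GFP signal in the first replicate; 1 = infected wells without compound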
Starred values were filed as active, the others as inactive.

For CCOC(=O)c1c(NC(=O)C2COc3ccccc3O2)sc(C(C)=O)c1C (stereo unspecified) the results were PKD1 kinase inh -2, GALR2 agonist -2.1, RGS16-Gao HTS 100, INS promoter inh -43 and INS promoter inh cell count 74.
O=C(Nc1ccccc1F)c1ccc(Cn2cc(Br)cn2)cc1 was read as PKD1 kinase inh -3, HSV augment inactive, RGS16-Gao HTS 101, INS promoter inh 0, INS promoter inh cell count 118 and HSV augment primary fold 0.98.
Screening Cc1cc(N)n2ncc(-c3cccc(Br)c3)c2n1 returned PKD1 kinase inh -2, HSV augment inactive, GALR2 agonist -3.0, RGS16-Gao HTS 96, INS promoter inh 93*, INS promoter inh cell count 204* and HSV augment primary fold 0.83.
Cc1ccc(CSCCNC(=O)c2ccc(NS(C)(=O)=O)cc2)cc1 was read as PKD1 kinase inh -8, HSV augment inactive, RGS16-Gao HTS 102, INS promoter inh -29, INS promoter inh cell count 117 and HSV augment primary fold 0.89.
Screening CS(=O)(=O)N1CCN(c2cccc(Cl)n2)CC1 returned PKD1 kinase inh 0, HSV augment inactive, GALR2 agonist -0.6, RGS16-Gao HTS 91, INS promoter inh 0, INS promoter inh cell count 110 and HSV augment primary fold 0.99.
Screening COC(=O)CSc1n[nH]c(-c2cccnc2)n1 returned PKD1 kinase inh -3, HSV augment inactive, GALR2 agonist -1.8, RGS16-Gao HTS 107, INS promoter inh 4, INS promoter inh cell count 112 and HSV augment primary fold 0.8.
For CC(C)(C)C(=O)Cn1ncc(Cl)c(Cl)c1=O the results were PKD1 kinase inh -4, HSV augment inactive, RGS16-Gao HTS 102 and HSV augment primary fold 0.67.
`CC1CCc2sc3ncn4nc(C(=O)NCc5ccco5)nc4c3c2C1` (stereo unspecified) gave PKD1 kinase inh -8, GALR2 agonist 1.1 and RGS16-Gao HTS 98.
Screening COc1ccc(N(CC(=O)N2CCCCCC2)S(=O)(=O)c2c(C)[nH]c(=O)[nH]c2=O)cc1 returned PKD1 kinase inh -5, HSV augment inactive, GALR2 agonist -2.2, RGS16-Gao HTS 102 and HSV augment primary fold 1.
COC(CNC(=O)c1cccc2c1C(=O)N(Cc1cccnc1)C2)OC was read as PKD1 kinase inh -1, HSV augment inactive, GALR2 agonist -0.6, RGS16-Gao HTS 103 and HSV augment primary fold 1.
O=C(O)c1cc(-c2cccnc2)nc2ccccc12 was read as HSV augment inactive, RGS16-Gao HTS 103 and HSV augment primary fold 1.1.
For O=C1CC(Cc2ccccc2)C(=O)N1c1ncccn1 (stereo unspecified) the results were PKD1 kinase inh 9, HSV augment inactive, RGS16-Gao HTS 104 and HSV augment primary fold 0.98.
For Cc1cc(S(=O)(=O)N2CCCCCC2)c(Cl)cc1Cl the results were PKD1 kinase inh -5, HSV augment inactive, GALR2 agonist -1.3, RGS16-Gao HTS 101, INS promoter inh 11, INS promoter inh cell count 95 and HSV augment primary fold 1.
CN1CCN(S(=O)(=O)c2ccc(NC(=O)c3cccc(S(=O)(=O)N4CCCC4)c3)cc2)CC1 was read as PKD1 kinase inh 19, HSV augment inactive, GALR2 agonist 0.1, RGS16-Gao HTS 100, INS promoter inh 29, INS promoter inh cell count 136 and HSV augment primary fold 0.89.
CCC(C)NCCOc1ccc(C)cc1[N+](=O)[O-] (stereo unspecified) was read as PKD1 kinase inh 9, HSV augment inactive, RGS16-Gao HTS 100 and HSV augment primary fold 1.2.
Screening O=C(CCN1C(=O)C2C3C=CC(C3)C2C1=O)NC1CCCc2ccccc21 (stereo unspecified) returned PKD1 kinase inh 4, HSV augment inactive, GALR2 agonist -4.8, RGS16-Gao HTS 120, INS promoter inh -100, INS promoter inh cell count 77 and HSV augment primary fold 0.93.
For COc1ccc(/C=C2/SC(=O)NC2=O)cc1 the results were PKD1 kinase inh -4, HSV augment inactive, RGS16-Gao HTS 112, INS promoter inh -27, INS promoter inh cell count 132 and HSV augment primary fold 0.9.
`CC(=O)Nc1ccc2c(c1)CCC2=O` gave PKD1 kinase inh -8, HSV augment inactive, GALR2 agonist -1.5, RGS16-Gao HTS 108, INS promoter inh -5, INS promoter inh cell count 71 and HSV augment primary fold 1.1.
Screening Cc1ccc(C(=O)O/N=C/c2c(C)nn(C)c2Cl)cc1 returned PKD1 kinase inh -5, HSV augment inactive, RGS16-Gao HTS 99 and HSV augment primary fold 0.86.
O=C(N/N=C\C=C\c1ccco1)c1cc(-c2ccc3ccccc3c2)n[nH]1 was read as PKD1 kinase inh 6, HSV augment inactive, GALR2 agonist 2.0, RGS16-Gao HTS 100, INS promoter inh 16, INS promoter inh cell count 154 and HSV augment primary fold 0.97.

Molecules shown so far with bromine, in the order listed:
O=C(Nc1ccccc1F)c1ccc(Cn2cc(Br)cn2)cc1 was read as PKD1 kinase inh -3, HSV augment inactive, RGS16-Gao HTS 101, INS promoter inh 0, INS promoter inh cell count 118 and HSV augment primary fold 0.98.
Screening Cc1cc(N)n2ncc(-c3cccc(Br)c3)c2n1 returned PKD1 kinase inh -2, HSV augment inactive, GALR2 agonist -3.0, RGS16-Gao HTS 96, INS promoter inh 93*, INS promoter inh cell count 204* and HSV augment primary fold 0.83.

(continued)
For Cc1cc(NC(=O)CN2CCCC(C)C2)n(-c2nc3ccccc3s2)n1 (stereo unspecified) the results were PKD1 kinase inh -9, GALR2 agonist -1.2, RGS16-Gao HTS 105, INS promoter inh -9 and INS promoter inh cell count 98.
`O=C(Cc1nnc(NC(=O)Nc2ccccc2F)s1)NCc1ccccc1` gave HSV augment inactive, RGS16-Gao HTS 95 and HSV augment primary fold 0.79.
Screening O=C(NCCc1ccccn1)c1cc(-c2ccccc2Cl)nc2ccccc12 returned PKD1 kinase inh -5, HSV augment inactive, GALR2 agonist 0.3, RGS16-Gao HTS 128 and HSV augment primary fold 1.
Screening CCOC(=O)c1sc2nc(C)nc(SCC(=O)NC(C)CCc3ccccc3)c2c1C (stereo unspecified) returned PKD1 kinase inh -2, HSV augment inactive, GALR2 agonist -0.3, RGS16-Gao HTS 99, INS promoter inh 3, INS promoter inh cell count 148 and HSV augment primary fold 1.1.
O=C(CN1CCCc2ccccc21)NC(=O)NC1CCCCC1 was read as PKD1 kinase inh -4, HSV augment inactive, RGS16-Gao HTS 92, INS promoter inh -53, INS promoter inh cell count 100 and HSV augment primary fold 0.86.
`CSc1nc(NCCOCCO)c2sc3nc(-c4ccco4)c4c(c3c2n1)CCC4` gave PKD1 kinase inh 2, HSV augment inactive, GALR2 agonist -1.8, RGS16-Gao HTS 95 and HSV augment primary fold 0.85.
`COc1ccc(CC(=O)NC(C)c2nnc(SCC(=O)Nc3nc(C)cs3)n2C)cc1` (stereo unspecified) gave PKD1 kinase inh 6, HSV augment inactive, GALR2 agonist -0.6, RGS16-Gao HTS 83, INS promoter inh 30, INS promoter inh cell count 114 and HSV augment primary fold 1.1.
O=C(CCNS(=O)(=O)c1cccc2nonc12)NC1CCCc2ccccc21 (stereo unspecified) was read as PKD1 kinase inh -4, HSV augment inactive, GALR2 agonist -1.7, RGS16-Gao HTS 104, INS promoter inh -28, INS promoter inh cell count 93 and HSV augment primary fold 1.1.
`CCC1=C(OC(=O)N(CC)CC)N2C(=O)OC(=NCC(=O)OC)[C@]2(Cc2ccccc2)[C@H]2C1=CC[C@H]1C(=O)N(c3ccccc3)C(=O)[C@H]12` gave HSV augment inactive, RGS16-Gao HTS 110 and HSV augment primary fold 0.99.
`O=C(CCCCn1c(=O)[nH]c2ccsc2c1=O)NCc1cccnc1` gave PKD1 kinase inh -7, HSV augment inactive, GALR2 agonist 0.4, RGS16-Gao HTS 128, INS promoter inh 16, INS promoter inh cell count 99 and HSV augment primary fold 0.92.
Screening CCCCn1c(NCc2cccs2)nc2ccccc21 returned PKD1 kinase inh -2, HSV augment inactive, RGS16-Gao HTS 101 and HSV augment primary fold 0.99.
CC1CCN(S(=O)(=O)c2ccc3c(c2)C(=NO)c2cc(S(=O)(=O)N4CCC(C)CC4)ccc2-3)CC1 was read as PKD1 kinase inh -12, HSV augment inactive, GALR2 agonist -1.1, RGS16-Gao HTS 55, INS promoter inh -5, INS promoter inh cell count 102 and HSV augment primary fold 0.53.
`O=C(c1ccc(COc2c(F)c(F)cc(F)c2F)o1)N1CCN(c2ccc(Cl)cc2)CC1` gave PKD1 kinase inh -2, HSV augment inactive, GALR2 agonist -3.0, RGS16-Gao HTS 103, INS promoter inh 37, INS promoter inh cell count 88 and HSV augment primary fold 1.1.
CCOC(=O)c1oc2ccccc2c1NC(=O)c1ccc(S(=O)(=O)N2CCCC2)cc1 was read as PKD1 kinase inh -9, HSV augment inactive, GALR2 agonist -1.6, RGS16-Gao HTS 175, INS promoter inh 19, INS promoter inh cell count 122 and HSV augment primary fold 0.81.
CC1CCN(CCCCOc2ccccc2Br)CC1 was read as PKD1 kinase inh -13, HSV augment inactive, GALR2 agonist 0.2, RGS16-Gao HTS 101, INS promoter inh -59, INS promoter inh cell count 131 and HSV augment primary fold 0.83.
COCCNC(=S)N/N=C/c1ccc(N2CCOCC2)cc1 was read as PKD1 kinase inh -2, HSV augment inactive, GALR2 agonist -0.5, RGS16-Gao HTS 102, INS promoter inh -20, INS promoter inh cell count 122 and HSV augment primary fold 0.56.
For CCC(Sc1ccc2nnc(-c3ccc(F)cc3)n2n1)C(=O)O (stereo unspecified) the results were PKD1 kinase inh -2, HSV augment inactive, GALR2 agonist 1.0, RGS16-Gao HTS 95 and HSV augment primary fold 0.96.
Screening O=C(CCn1c(=O)[nH]c2ccccc2c1=O)N1CC=C(c2ccccc2)CC1 returned PKD1 kinase inh -2, HSV augment inactive, RGS16-Gao HTS 105, INS promoter inh 0, INS promoter inh cell count 90 and HSV augment primary fold 0.97.
Nn1c(SCC(=O)NCCC2=CCCCC2)nnc1C(F)(F)F was read as PKD1 kinase inh -14, HSV augment inactive, GALR2 agonist -1.8, RGS16-Gao HTS 103 and HSV augment primary fold 1.1.
For O=C(c1ccc([N+](=O)[O-])cc1)N1CCN(Cc2ccccc2[N+](=O)[O-])CC1 the results were PKD1 kinase inh 1, HSV augment inactive, RGS16-Gao HTS 45 and HSV augment primary fold 1.
For CCS(=O)(=O)c1nnnn1-c1ccccc1S(C)(=O)=O the results were PKD1 kinase inh -9, HSV augment inactive, GALR2 agonist -1.1, RGS16-Gao HTS 80, INS promoter inh 38, INS promoter inh cell count 215 and HSV augment primary fold 0.85.
`CCOC(=O)c1[nH]c2cc3c(cc2c1NC(=O)CN1CCN(CCO)CC1)OCO3` gave HSV augment inactive, RGS16-Gao HTS 94 and HSV augment primary fold 0.86.
For CCOC(=O)c1cnn(-c2nc(-c3ccccc3)cs2)c1C(F)(F)F the results were PKD1 kinase inh -12, HSV augment inactive, GALR2 agonist -2.9, RGS16-Gao HTS 95, INS promoter inh -19, INS promoter inh cell count 88 and HSV augment primary fold 0.87.
CN1CC(C(=O)O)Cc2c1ccc1ccccc21 (stereo unspecified) was read as HSV augment inactive, RGS16-Gao HTS 102 and HSV augment primary fold 0.96.
O=C1c2ccccc2C(=O)C1c1ccccn1 was read as HSV augment inactive, RGS16-Gao HTS 105 and HSV augment primary fold 1.
CCn1c(=S)sc2c(=O)n(-c3ccccc3)c(SCC(=O)NCc3ccco3)nc21 was read as PKD1 kinase inh -2, HSV augment inactive, GALR2 agonist 0.8, RGS16-Gao HTS 106, INS promoter inh 36, INS promoter inh cell count 116 and HSV augment primary fold 1.1.
For c1ccc(C(c2ccccc2)c2noc(CN3CCN(C4CCCC4)CC3)n2)cc1 the results were PKD1 kinase inh -7, HSV augment inactive, RGS16-Gao HTS 98 and HSV augment primary fold 0.79.
For O=C(Cn1c(=O)sc2ccccc21)NCc1ccccn1 the results were PKD1 kinase inh -18, HSV augment inactive, GALR2 agonist 0.6, RGS16-Gao HTS 106 and HSV augment primary fold 1.
For Cn1cccc1/C=N\NC(=O)Cc1ccc(Br)c2ccccc12 the results were PKD1 kinase inh 0, HSV augment inactive, RGS16-Gao HTS 108, INS promoter inh -5, INS promoter inh cell count 52 and HSV augment primary fold 1.1.
`O=C(NCc1ccco1)c1sc(=S)n2c1[nH]c(=O)c1ccccc12` gave PKD1 kinase inh -10, HSV augment inactive, GALR2 agonist -1.0, RGS16-Gao HTS 93, INS promoter inh 36, INS promoter inh cell count 124 and HSV augment primary fold 0.98.
Screening Cc1ccc(NC(=O)N2CCCC2C(=O)NCc2cccs2)cc1 (stereo unspecified) returned PKD1 kinase inh 1, HSV augment inactive, GALR2 agonist -1.0, RGS16-Gao HTS 104, INS promoter inh 22, INS promoter inh cell count 118 and HSV augment primary fold 0.97.
CCOc1ccc(-c2nnc3ccc(SC)nn23)cc1 was read as PKD1 kinase inh -3, HSV augment inactive, GALR2 agonist -0.1, RGS16-Gao HTS 94 and HSV augment primary fold 0.94.

From PubChem BioAssay
